# High-throughput results deposited in PubChem BioAssay by ICCB-Longwood Screening Facility, Harvard Medical School.
# S aureus helic: blocks Staphylococcus aureus DNA helicase | hit rate 0.05% among 120,000 | purified S. aureus helicase, fluorescence unwinding assay; about half of the hits fall short of the stated cut | inhibition, %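 (tested at about 80 µM)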 | AID 485395;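 active means both duplicates at 50% or more, or one of them with a favoured structure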;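 further: 0% = mean of negative control wells and 100% = mean of positive control wells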
# MgrA-DNA mod: alters Staphylococcus aureus MgrA binding to DNA; hit rate 0.13% among 84,000; inhibition, %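 (about 10 µg/mL by stock and volumes)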; fluorescence polarization;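 active means above 50% in either of two replicates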;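 further: 0% = protein plus DNA without compound and 100% = DNA alone without protein; higher means less MgrA bound to DNA so lower polarization; one replicate is shown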
# Starred values were filed as active, the others as inactive; x = not tested or not shown. This is a subset; rates above refer to the full screens.
SMILES,S aureus helic,MgrA-DNA mod
COc1ccc(-c2cc(N)n[nH]2)c(OC)c1,8,x
CC(C)(C)C(O)(CCc1ccccc1)Cn1cncn1 (stereo not given),-11,x
COC(=O)c1cc(/C=C(\C#N)S(C)(=O)=O)cn1-c1ccc(Cl)cc1,x,0.8
CC(C(=O)NCc1ccc2c(c1)OCO2)N(c1ccccc1)S(C)(=O)=O (stereo not given),5,-2.2
CCCOc1cccc(C(=O)Nc2c[nH]c(=O)[nH]c2=O)c1,3,x
Cc1ccc(-c2nc(C=Nc3ccc4c(c3)OCCO4)c(O)o2)cc1,4,x
COc1cccc(NC(=O)/C=C/c2ccco2)c1,-4,x
CCCN(CCC)C(=O)c1cn(C)c2ccc(S(=O)(=O)N(CC)CC)cc2c1=O,9,-0.9
CC1CCCC(C)N1Cc1cn2ccccc2n1 (stereo not given),-13,-0.5
Cc1nnsc1C(=O)NCCc1c[nH]c2ccccc12,x,-1.9
CC1C(=O)CC(c2ccccc2)OC1c1ccccc1 (stereo not given),-5,-7.2
Cc1cc(C)cc(N(CC(=O)N=Nc2c(O)[nH]c3ccccc23)S(C)(=O)=O)c1,-6,x
CCN1C(=O)c2ccccc2S(=O)(=O)c2ccc(C(=O)NCC3CCCO3)cc21 (stereo not given),9,x
Cc1ccccc1NC(=O)C1CCCCC1,6,3.5
COc1ccc(-c2nnc(SCc3nc4ccccc4c(=O)n3CC#N)o2)cc1,-25,x
Fc1ccc(Nc2ncnc3c2oc2ccccc23)cc1,11,0.6
Fc1ccccc1-n1c(CCc2nc(-c3ccc(Cl)cc3)no2)n[nH]c1=S,x,3.6
CCCCOc1ccc(/C=C(\C#N)c2nc(-c3cc4c(ccc5ccccc54)oc3=O)cs2)cc1,x,-0.2
O=C(CCC1CCCC1)NCc1nc(-c2ccccc2)no1,11,0.1
CCn1c(=N)c(C(N)=O)cc2c(=O)n3ccccc3nc21,-2,3.6
COc1cc(OC)cc(-c2nc3ccccc3c(=O)n2OC(=O)c2cc(C)c(C)cc2C)c1,x,-0.6
C=CCNc1nnc(SCC(=O)NC2CCS(=O)(=O)C2)s1 (stereo not given),15,x
COc1ccc2c(C=NC(C)(C)C)c(O)n(Cc3ccccc3)c(=O)c2c1,-18,-2.3
CCOc1cccc2cc(C(=O)Nc3nccs3)c(=Nc3ccc(C)c(C)c3)oc12,-2,0.7
CC(C)n1c(COc2ccccc2)nc2ccccc21,-2,x
CN1C(N)=NC(=O)/C1=C/c1cc(Br)c(O)c(Br)c1,6,x
Nc1nc(SCC(=O)Nc2ccccc2)ncc1S(=O)(=O)c1ccccc1,-19,x
O=C(COc1ccccc1)NCC1CCCO1 (stereo not given),-4,3.1
C/C(=C\c1nsc(Nc2ccccc2)n1)NCc1ccc(C)cc1,5,0.0
Cc1cc(C(=O)CSc2nnc(CCC(N)=O)n2CC(C)C)c(C)n1-c1ccc(C(C)C)cc1,-5,x
CSc1nc(N/C=C(\C#N)C(=O)c2cccs2)n2nc(C)cc2n1,-68,x
C=CCn1c(=O)c(C(=O)NCC2CCCN2CC)c(O)c2cc(OC)c(OC)cc21 (stereo not given),-2,0.0
Cc1cc(C)c(C#N)c(SCC(=O)NC(C)(C)C)n1,6,x
COc1cc(-c2cc(C(F)(F)F)n3ncc(C(=O)Nc4c(C)n(C)n(-c5ccccc5)c4=O)c3n2)cc(OC)c1OC,x,-0.8
N#Cc1c(-c2ccccc2)no[n+]1[O-],x,0.2
CN(C)C1(CNC(=S)NC2CCCCC2)CCCCC1,-3,x
OCC1CCCCN1C(=S)NCCc1ccccc1 (stereo not given),0,-2.1
CCC1C(O)CC(c2ccccc2)NC1c1ccccc1 (stereo not given),x,-2.0
O=C(Nc1nnc(-c2ccccc2)o1)Nc1ccccc1Cl,24,x
C(=N\c1nc2c(s1)CCc1ccccc1-2)/c1ccc2c(c1)OCO2,x,3.5
Cc1ccc(C2C(N)C(=O)N2c2ccc(C)cc2)cc1 (stereo not given),-8,x
CCOc1ccc(CCNC(=O)Cn2sc3nc(C)cc(C)c3c2=O)cc1,24,x
CCn1cc(C(=O)NCc2ccccc2Cl)c(=O)c2cc(S(=O)(=O)N(C)C)ccc21,12,-1.1
O=C(OCc1ccccc1)c1ccncc1,0,-0.6
COC(=O)c1sc2ncn(-n3cccc3)c(=O)c2c1C,9,x
CC(C)C(=O)Oc1cc(OC(=O)C(C)C)c2ccccc2c1,2,5.4
CN(C)S(=O)(=O)c1ccc(C(=O)NC(=O)CSc2nnc(C3CC3)n2-c2ccccc2)cc1,-1,x
O=C(COc1ccccc1Cl)N1CCc2ccccc2C1,10,-2.3
COc1cccc(NC(=O)CCCN2C(=O)/C(=C\c3ccco3)SC2=S)c1,-4,x
O=C(Nc1cc(C(F)(F)F)cc(C(F)(F)F)c1)c1ccc(Cl)cc1,x,-0.4
CC(Sc1nc(N)cc(=O)[nH]1)c1nc2ccccc2c(=O)[nH]1 (stereo not given),6,-3.8
O=C(CSCc1cnn(-c2ccccc2)c1-n1cccc1)NCCc1ccccc1,10,x
CNC(=O)NC(=O)CSc1nc2sc3c(c2c(=O)n1C)CCCC3,-1,x
Cc1nc(S(=O)(=O)Cc2ccccc2Cl)nc2c1CCC2,x,0.3
CCN(CC)C(=O)N1CCc2cc(OC)c(OC)cc2C1c1cc2cc(C)ccc2n(C(=O)N(CC)CC)c1=O (stereo not given),-3,1.1
Cn1c(Cc2ccccc2)nnc1SCC#N,4,0.8
CCN(CC)c1ccc2cc(C(=O)Nc3cccc(C(F)(F)F)c3)c(=N)oc2c1,x,-0.8
CN(Cc1ccccc1)C(=O)Cn1c(=O)c2cccn2c2cccnc21,2,-0.8
CC(=S)/C=C1\Sc2ccccc2N1C,23,1.8
NC(=O)C1CCCCN1C(=O)CCCc1c[nH]c2ccccc12 (stereo not given),6,x

# 5 neighbouring compounds already listed, for reference:
SMILES,S aureus helic,MgrA-DNA mod
COc1cccc(NC(=O)CCCN2C(=O)/C(=C\c3ccco3)SC2=S)c1,-4,x
O=C(Nc1cc(C(F)(F)F)cc(C(F)(F)F)c1)c1ccc(Cl)cc1,x,-0.4
CC(Sc1nc(N)cc(=O)[nH]1)c1nc2ccccc2c(=O)[nH]1 (stereo not given),6,-3.8
O=C(CSCc1cnn(-c2ccccc2)c1-n1cccc1)NCCc1ccccc1,10,x
CNC(=O)NC(=O)CSc1nc2sc3c(c2c(=O)n1C)CCCC3,-1,x

# Further records:
SMILES,S aureus helic,MgrA-DNA mod
COc1ccc(/C=C2/C(=O)N(c3ccc(Cl)c(Cl)c3)N=C2C)cc1,x,0.9
CCCc1ccc(S(=O)(=O)N2CCC(c3ccc(=O)n(-c4ccccc4)n3)CC2)cc1,4,1.4
CCn1cc(C(=O)Nc2ccc(CC#N)cc2)c(C)n1,12,x
Cc1cc(CNC(=O)Nc2ccc3c(c2)OCO3)c(C)n1-c1ccc(F)cc1,18,x
CCn1nc(C(=O)NC23CC4CC(CC(C4)C2)C3)c2ccccc2c1=O,-8,x
O=C(O)C(CO)N1Cc2ccccc2C1=O (stereo not given),x,-3.2
CNC(=O)N(c1ccccc1)c1ccccc1,x,-2.2
Cn1nc(C(F)(F)F)c(-c2ccccc2)c1NC(=O)c1ccco1,x,0.2
Cc1ccc(O)c(C(=O)CSc2nnc(-c3ccccn3)c(-c3ccccn3)n2)c1,1,0.3
COc1cccc(-c2nnc(-c3ccccc3)o2)c1,7,-1.6
Cc1c(C)c(/C=N/O)c(C)c(C)c1/C=N/O,-14,0.6
O=C1CC(N2CCN(Cc3ccccc3)CC2)C(=O)N1 (stereo not given),3,-0.5
CCN(CC)C(=O)COc1cc(C)c(Cl)c(C)c1,15,-1.1
CCC(=O)NCc1nc2ccccc2n1CC(C)C,-15,x
COc1ccc(CN(C)C(=O)CN(C)S(=O)(=O)c2ccc3c(c2)OCCO3)cc1,9,x
CC1CCCCC1NC(=O)c1ccc2c(=O)n(CCCN3CCCC3=O)c(=S)[nH]c2c1 (stereo not given),7,1.1
O=C(OCC(=O)N1CCCC1)c1ccccc1O,-13,-1.5
CCCc1nc2sc3c(N4CCCC4)ncnc3c2c2c1CCCC2,10,1.0
Cc1ccc(CS(=O)Cc2ccc(C(=O)NCCc3ccccc3)o2)cc1 (stereo not given),10,x
O=C(CCCO)NC1Cc2ccccc2C1,x,4.6
O=C1Cc2ccccc2N1c1c(Cl)cccc1Cl,8,0.4
C=C(C)c1cccc(C(C)(C)NC(=O)N2CC(C)OC(C)C2)c1 (stereo not given),10,-0.1
O=C(NCCC1CCCCC1)N1CCN(c2ccccc2)CC1,10,1.9
O=C(CCC1=NS(=O)(=O)c2cc(Br)cnc2N1)N1CCOCC1,7,0.4
O=C(CCCn1c(=O)c2ccccc2n(Cc2ccc(F)cc2)c1=O)NCc1ccc(F)cc1,-3,x
CC(C)=NNCOc1ccc(OCc2ccccc2)cc1,-16,x
Cc1cc(C)n2c(SCC(=O)N3CCc4ccccc43)nnc2n1,14,x
COC(=O)c1ccc2c(c1)nc(C)n2CCO,9,-0.6
C=CCn1c(SCC(=O)NC(=O)NC)nnc1-c1ccc(Cl)cc1Cl,4,x
OC1(c2cccc(C(F)(F)F)c2)CCN(c2ccc(-c3ccccc3)nn2)CC1,5,1.2
COc1ccc2cc(/C(C)=N/OC(=O)Nc3ccc(OC(F)(F)F)cc3)ccc2c1,x,1.8
CCCc1ccc(OCC(O)CN2CCN(C)CC2)cc1 (stereo not given),-14,x
NNC(=O)CC1=Nn2c(nnc2-c2cccs2)SC1,x,0.0
c1ccc(-c2nnc(SCCN3CCOCC3)o2)cc1,-3,-4.3
COc1ccc(Nc2c3c(nc4ccc(NC(=O)c5ccc(Br)o5)cc24)CCCC3)cc1OC,-4,x
O=C(CSc1nc2ccccc2s1)Nc1ccc(S(=O)(=O)Nc2nccs2)cc1,x,8.2
CSc1ncc(C(=O)Nc2cccnc2)c(C(F)(F)F)n1,-25,x
CC1N=C(c2ccc(Cl)cc2)NO1 (stereo not given),x,-0.3
Cc1c(NCc2ccccc2)cccc1C(=O)O,9,x
O=C1CC(N2CCC(c3nc4ccccc4[nH]3)CC2)C(=O)N1 (stereo not given),11,-2.1
COc1ccc(/C=C2\SC(=S)N(CCC(=O)N3c4ccccc4Sc4ccccc43)C2=O)cc1,x,-1.4
CCOC(=O)c1c(O)c2c([nH]c1=O)CCCC2,-6,-2.5
O=S(=O)(c1ccc(N2CCCCC2)cc1)C(F)(F)F,18,8.2
CN=C(C)/C(C(=O)OC)=C(/O)c1cc(C(F)(F)F)cc(C(F)(F)F)c1,x,-0.9
COc1cc(C(=O)O)ccc1OCc1c(C)noc1C,11,x
CC12CCC(=O)N1C(C(=O)N1CCN(c3ccccc3)CC1)CS2 (stereo not given),-4,x
CC(C)(C)NC(=O)C1CC(=O)N(c2ccccc2)C1 (stereo not given),7,2.2
N#C/C(=C\c1cnc2ccccc2n1)S(=O)(=O)c1ccccc1,-4,20
Cc1c(C(=O)NC(=S)Nc2ccc(C(=O)OC(C)C)cc2)oc2ccccc12,-1,0.5
O=C(NC(=S)Nc1ccc(Nc2ccccc2)cc1)c1ccco1,10,0.7
CCCOc1ccc(C2C3=C(CC(C)(C)CC3=O)Nc3ccccc3N2C(=O)CC)cc1OC (stereo not given),x,-0.6
COC(=O)c1cc2ccsc2n1CC(=O)Nc1ccc(OC)c(OC)c1,-2,x
O=C(NCCN1CCN(Cc2ccccc2)CC1)Nc1ccc(OCc2ccccc2)cc1,16,x
CC(=O)N(Cc1ccccc1)Cc1cc2cc(C)ccc2n2nnnc12,3,-0.3
CC(C)(C)c1ccc(-c2nnc(-c3ccccc3NC(=O)CCC(=O)O)o2)cc1,x,0.4
c1ccc(CCC2CCNCC2)cc1,9,3.3
CCCN(C(=O)CCc1nc(-c2ccccc2F)no1)c1ccc(OCC)cc1,12,x
COc1ccc(NS(=O)(=O)c2cccc(C(=O)O)c2)cc1,8,x
Cc1ccc(N2CCN(C(=O)c3sc4nc5n(c(=O)c4c3C)CCCC5)CC2C)cc1 (stereo not given),17,0.9
CC(=O)Nc1ccc2c(COC(=O)Cc3ccc4c(c3)OCCO4)cc(=O)oc2c1,2,x

# 6 structures out of the list, arranged by SMILES length, falling.
SMILES,S aureus helic,MgrA-DNA mod
CCCCOc1ccc(/C=C(\C#N)c2nc(-c3cc4c(ccc5ccccc54)oc3=O)cs2)cc1,x,-0.2
COc1cc(OC)cc(-c2nc3ccccc3c(=O)n2OC(=O)c2cc(C)c(C)cc2C)c1,x,-0.6
CC(C)(C)c1ccc(-c2nnc(-c3ccccc3NC(=O)CCC(=O)O)o2)cc1,x,0.4
COC(=O)c1cc(/C=C(\C#N)S(C)(=O)=O)cn1-c1ccc(Cl)cc1,x,0.8
COc1cccc(NC(=O)CCCN2C(=O)/C(=C\c3ccco3)SC2=S)c1,-4,x
CCC(=O)NCc1nc2ccccc2n1CC(C)C,-15,x

# The results go on.
SMILES,S aureus helic,MgrA-DNA mod
CC1=NNC(=O)C1CC(=O)N/N=C/C=C/c1ccccc1 (stereo not given),-2,0.0
COc1ccc2nc(C)sc2c1,26,x
CN1C(=O)/C(=C/c2ccc(N3CCCC3)c(F)c2)C(=O)NC1=S,12,17
NC(=O)C1CCN(CC(O)CSc2ccccc2)CC1 (stereo not given),x,1.5
Cc1ccc(S(=O)(=O)Cc2ccc(C(=O)N3CCN(Cc4ccccc4)CC3)o2)cc1,-9,x
Cc1ccc(NC(=O)c2snnc2C)cc1,12,x
O=c1[nH]cc(S(=O)(=O)N2CCC3(CC2)OCCO3)c(=O)[nH]1,6,x
COc1ccc(-c2nsc(SCC(=O)N3CCCC3)n2)cc1,-8,2.0
